Screening results from PubChem.
FGF22 binding = binders of recombinant human FGF22 by thermal shift. 1.5% of 340,000 active. calls only at 9.99 µM. SYPRO orange fluorescence; percent of sucrose octasulfate shift, DMSO zero. Q9HCT0;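 active = melting point raised past a set limit in the mean and every replicate; inconclusive = no clear call; three in four hits are not shown here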
Target sequence (Q9HCT0 whole entry, looked up): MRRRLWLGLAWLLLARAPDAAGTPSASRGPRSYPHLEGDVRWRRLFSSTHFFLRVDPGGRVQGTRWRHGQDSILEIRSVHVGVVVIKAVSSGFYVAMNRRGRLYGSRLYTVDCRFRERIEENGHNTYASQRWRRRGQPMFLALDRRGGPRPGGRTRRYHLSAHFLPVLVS
RanGTP-Impb inh = disruptors of Ran-importin-beta complex formation – biochemical, FRET, CFP-Ran, YFP-importin-beta, homogeneous, primary screen; AID 2216; cell-free CFP-Ran/YFP-importin-beta FRET ratio; 1.1% of 300,000 active; inhibition, % (test concentration not listed);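 active = most replicates above 15%; inconclusive = exactly half above 15%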;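 note: 0% = DMSO wells and 100% = Ran loaded with GDP instead of GTP; wells of about 40 µL received 100 nL stock; the first replicate is given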
E coli growth = inhibitors of Escherichia coli growth. OD600, 23 h; hits give low values. OD600 absorbance (test concentration not listed). 0.21% of 330,000 active;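 active = OD600 absorbance below the run mean of sample wells minus 3.6 SD, in any replicate, cut at about 0.56 in these data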;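 note: stock transfer was 300 nL into about 60 µL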
AF4-AF9 inh = inhibitors of human MLL-AF4/AF9 interaction | AlphaScreen, biotin-AF4 peptide binding to FLAG-AF9 | inhibition, % at 10 µM | 0.47% of 350,000 active | AID 651704;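 active = every replicate reaching a set inhibition limit, whatever the replicate mean, cut at about 25% in these data; inconclusive = mean inhibition reaches that limit but some replicates miss it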;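 note: 0% = plate neutral control median and 100% = total signal loss; the record names both 10 and 1 µM as test concentration; the first replicate is given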
UCH37 inh = blocks the human deubiquitinase UCH37; Q9Y5K5; purified proteasome/UCH37, Ub-AMC cleavage fluorescence; inhibition, % (no concentration beside the values); 0.33% of 330,000 active; AID 588478;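 active = mean of two replicates above 20%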;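 note: 0% = compound-free wells with enzyme and 100% = wells lacking proteasome; stock transfer was 100 nL into about 20 µL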
Target sequence (Q9Y5K5 whole entry, looked up): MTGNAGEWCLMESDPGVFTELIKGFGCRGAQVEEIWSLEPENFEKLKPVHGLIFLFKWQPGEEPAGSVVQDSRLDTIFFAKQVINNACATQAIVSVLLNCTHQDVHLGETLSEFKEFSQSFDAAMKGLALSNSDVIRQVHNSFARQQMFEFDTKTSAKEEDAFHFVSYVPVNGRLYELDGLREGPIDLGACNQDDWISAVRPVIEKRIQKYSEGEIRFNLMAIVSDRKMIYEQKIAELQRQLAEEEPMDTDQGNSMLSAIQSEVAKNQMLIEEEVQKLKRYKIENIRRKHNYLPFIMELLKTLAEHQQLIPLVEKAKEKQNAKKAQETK
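Test system – human UCH37 enzyme supplied as purified proteasome complex · Incubation – 30 min preincubation with enzyme, 25 min cleavage at room temperature · Detection – AMC fluorescence from Ub-AMC cleavage, excitation 355 nm, emission 460 nm · Benchmarks – no-proteasome wells (full inhibition) and compound-free wells (no inhibition)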
Vif TR-FRET = inhibitors of Vif binding to APOBEC3G peptide, primary screen, biochemical, TR-FRET, GST-Vif 1-94, biotin-A3G peptide, dose response retest (AID 1117319); TR-FRET GST-Vif / biotin-A3G peptide binding; higher % means a stronger effect; test concentration not given here; strong numbers were not always called active; one-dose inhibition, %; IC50 in µM for titrated hits; 0.57% of 260,000 active;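 active = above the screen mean plus three standard deviations and confirmed in dose response; inconclusive = results disagree or hit not tested in dose response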;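 note: Vif residues 1-94 fused to GST binding biotinylated APOBEC3G peptide 110-148; 0% = full assay without inhibitor and 100% = GST in place of GST-Vif; retest series ran down from 100 µM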
HNF4A DNA FP = change in binding of human HNF4 alpha to DNA; P41235; HNF4a-FITC DNA binding, fluorescence polarization, 1 h; activity change, % at 10 µM; 0.3% of 360,000 active; in the data active = activity change above about 30%, passing the limit was not always enough;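 note: controls were the assay level and a saturating level of protein; the project sought stronger binding though the title names inhibitors; some compounds called inactive have numbers as strong as hits; positive values seem to mean higher polarization but the record does not say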
Target sequence (P41235 whole entry, looked up): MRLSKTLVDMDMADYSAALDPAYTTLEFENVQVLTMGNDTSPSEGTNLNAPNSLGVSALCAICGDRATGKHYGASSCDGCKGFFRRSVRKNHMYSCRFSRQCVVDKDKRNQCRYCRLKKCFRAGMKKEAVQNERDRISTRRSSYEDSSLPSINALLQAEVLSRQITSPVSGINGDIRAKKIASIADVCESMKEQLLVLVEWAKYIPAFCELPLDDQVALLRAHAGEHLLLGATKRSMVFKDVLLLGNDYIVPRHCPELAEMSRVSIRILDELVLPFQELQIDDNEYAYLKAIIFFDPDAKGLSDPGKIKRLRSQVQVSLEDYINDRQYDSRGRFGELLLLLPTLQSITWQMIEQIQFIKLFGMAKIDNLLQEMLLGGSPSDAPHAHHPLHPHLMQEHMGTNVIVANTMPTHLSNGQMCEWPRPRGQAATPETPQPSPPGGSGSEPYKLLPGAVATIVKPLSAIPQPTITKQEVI
The depositor's hits bear a star; i = inactive; ? = inconclusive; / = no result given. Only part of the results is shown; rates above refer to the full screens.

SMILES	FGF22 binding	RanGTP-Impb inh	E coli growth	AF4-AF9 inh	UCH37 inh	Vif TR-FRET	HNF4A DNA FP
CC(=O)N[C@@H](Cc1c[nH]c2ccccc12)C(=O)OCc1ccc(C#N)cc1	i	-1.7	0.655	2.3	7.3	/	2.7
CCn1c(=O)cc(SCC(=O)Nc2cccnc2)c2ccccc21	/	-1.0	0.696	/	-2.2	-5.8%	-1.0
COc1ccc(-n2c(SCC(C)=O)nc3sc(C)c(C)c3c2=O)cc1	i	-1.9	0.72	-0.4	1.1	-12.1%	1.4
Cc1ccc(C(O)c2ncc(-c3ccccc3)[nH]2)c(C)c1 (centres undefined)	i	/	/	1.5	/	/	3.7
CC(C)c1csc2nc3n(c(=O)c12)CCCCC3	i	0.9	0.708	-0.6	3.9	-3.7%	-2.5
COc1ccc(C(=O)Nn2cnc3ccccc3c2=O)cc1[N+](=O)[O-]	i	7.1	0.688	-1.0	2.1	0.0%	0.7
O=C(COc1ccc2c(-c3ccccc3)cc(=O)oc2c1)NCCCn1ccnc1	i	?	0.72	2.0	5.0	/	4.4
O=C(Nc1ccc(Cl)cc1)N1CC=CCC1	/	11.7	0.748	/	4.5	-4.3%	-0.1
COc1ccc(Cl)cc1C(=O)NNC(=O)COC(=O)CC(NC(C)=O)c1ccccc1 (centres undefined)	i	2.9	0.685	-2.8	-0.2	-1.3%	-8.0
CCOc1cc(C(=O)Nc2cnccn2)cc(OCC)c1OCC	/	-0.2	0.688	/	1.7	-1.5%	1.8
COc1ccc(Cl)cc1NC(=O)CS(=O)(=O)c1cccc2nsnc12	/	1.4	0.681	/	4.5	-4.0%	0.3
CC1CCCN(CCCNC(=O)c2ccc3c(c2)N(Cc2ccc(F)cc2)C(=O)c2ccccc2S3=O)C1 (centres undefined)	i	-1.9	0.663	8.3	3.0	/	0.1
CCc1cc(=O)oc2c3c(cc(OCC(=O)NCCCCCC(=O)O)c12)OC(C)(C)CC3	i	2.0	0.645	-0.9	i	-4.4%	2.4
CCCCn1c(N)c(N(CCC(C)C)C(=O)COC(=O)c2cccnc2Cl)c(=O)[nH]c1=O	i	/	0.681	-9.7	0.5	-6.9%	-2.3
CCCc1cc(=O)oc2cc3occ(C)c3cc12	/	-2.4	0.72	/	-38.3	-4.3%	1.9
Cn1/c(=N/N=C/c2ccc(Cl)c([N+](=O)[O-])c2)sc2ccccc21	/	?	/	/	/	3.3%	-0.8
O=C1Nc2ccccc2CCc2ccccc21	i	/	0.701	-7.2	4.2	-2.1%	-1.0
Cc1csc(NC(=O)C2C3C=CC(O3)C2C(=O)O)n1 (centres undefined)	/	3.3	0.701	/	2.2	4.2%	1.7
CCc1ccc(/C=C/c2c([N+](=O)[O-])c(=O)n(C)c(=O)n2C)cc1	i	-0.5	0.645	5.2	5.6	3.0%	-0.1
CC(C)CCN1CCN(Cc2ccsc2)CC1CCO (centres undefined)	i	1.5	0.713	-0.8	2.9	-5.1%	0.7
CC(C)n1c(=O)c2ccccc2n1CC(=O)N1CCOCC1	i	/	/	-2.6	/	/	-0.9
O=C(Nc1nnc(-c2ccco2)o1)c1ccc(S(=O)(=O)N2CCCCC2)cc1	i	/	/	5.3	/	6.5%	-7.0
O=C(N/N=C/c1ccc(OC(=O)c2cccc(Br)c2)cc1)c1cccnc1	i	-1.3	/	-0.3	/	/	-1.3
CC(C)CC(C(=O)OCC(=O)N1CCN(c2ccccc2)CC1)N1C(=O)c2ccccc2C1=O (centres undefined)	i	/	0.65	3.6	5.2	/	3.4
COc1ccc(N(C(=O)Cn2nnc3ccccc32)C(C(=O)NC(C)(C)C)c2ccc(OC)c(O)c2)cc1 (centres undefined)	i	1.6	0.704	1.7	0.8	14.1%	-1.8
CCNC(=O)Cn1c(=O)c2c(ncn2Cc2ccccc2)n(Cc2ccccc2)c1=O	i	-0.1	0.717	1.0	0.7	-3.1%	3.2
COc1cc(N2C(=O)NC3CC2(C)Oc2ccccc23)cc(OC)c1OC (centres undefined)	/	-3.2	0.777	/	0.7	9.8%	1.0
O=C(C1CCC(CNc2c(N3CCCCC3)c(=O)c2=O)CC1)N1CCc2ccccc2C1 (centres undefined)	i	5.9	0.714	-5.8	5.1	-2.6%	-1.7
O=C(COc1ccc(F)cc1)N1CCC(c2ccccc2)C1 (centres undefined)	/	0.0	0.661	/	0.0	27.7%	2.6
C(=C\c1ccccc1)/CN1CCN(C(c2ccnc3ccccc23)c2nnnn2C2CCCC2)CC1 (centres undefined)	i	/	/	7.8	/	/	-5.6
CCOc1ccc(/C=N/NC(=O)c2ccccc2NC(=O)c2ccc(OC)cc2)cc1	i	4.4	/	-10.7	/	1.1%	-1.7
Cc1cccc(Nc2nc(N)nc(CN3CCC(C(N)=O)CC3)n2)c1C	/	-0.9	0.781	/	-2.5	-1.3%	4.5
Cc1nc2ccccc2cc1OCc1ccc(Cl)cc1	/	0.1	0.635	/	-5.0	-5.7%	-0.3
O=C(CC1Nc2ccccc2NC1=O)NCCCN1CCCCCC1 (centres undefined)	/	-6.4	0.754	/	-9.1	-6.4%	31.5
COC(=O)c1c(-c2ccc(F)cc2)csc1NC(=O)C1CCCO1 (centres undefined)	i	1.6	0.643	-1.4	-0.8	-5.8%	2.0
COC(=O)c1sccc1NC(=S)Nc1cc(OC)ccc1OC	i	0.3	0.675	-8.3	5.1	-0.5%	-0.1
C/C(=N\NC(N)=S)c1ccccc1	i	-2.6	/	1.3	/	19.0%	2.2
CN1CCN(C2CN(Cc3cn(Cc4cccc(C(F)(F)F)c4)nn3)S(=O)(=O)C2)CC1 (centres undefined)	i	/	/	-1.7	/	/	1.4
c1coc(CNc2ncnc3c2oc2ccccc23)c1	/	/	0.663	/	4.5	18.3%	-1.5
O=S(=O)(Cc1ccccc1)N1CCCCC1	/	-1.7	0.646	/	4.3	9.2%	5.5
COc1ccccc1C(=O)N/N=C(\C)CC(=O)Nc1ccccc1NC(C)=O	i	2.0	/	3.7	/	/	0.1
Cc1sc2ncn(CC(=O)NCC3COc4ccccc4O3)c(=O)c2c1S(=O)(=O)N1CCOCC1 (centres undefined)	i	3.3	0.752	-1.4	3.1	-1.4%	-2.7
O=C(NCc1ccccn1)c1n[nH]c2ccccc12	/	3.9	0.694	/	1.4	-0.9%	1.3
CCOc1ccc(CCNC(=O)COC(=O)c2cccnc2OCC)cc1OCC	/	19.7*	0.707	/	3.2	5.0%	3.4
CCOCCCN(C(=O)Cn1nnc(-c2ccc(C)o2)n1)C(C(=O)NCC1CCCO1)c1ccc(F)cc1 (centres undefined)	i	-6.9	0.74	-20.3	1.0	9.6%	-2.7
COc1cc(C(=O)NC(C)CCc2ccccc2)cc(OC)c1OC (centres undefined)	i	1.6	0.661	-3.0	-0.3	/	-3.9
Cc1cc(Cl)cc(C)c1OCCCCn1ccnc1	/	?	0.683	/	0.5	-0.2%	-1.3
O=S1(=O)[C@H]2C[C@@H]3CC[C@]2(CN1Cc1cccc(F)c1)O3	i	-2.0	/	-3.0	4.6	-4.8%	-0.1
O=C1/C(=C/c2ccccc2Cl)SC(=S)N1CCC(=O)N1CCCCC1CCO (centres undefined)	i	4.2	0.677	15.3	6.5	/	-3.2
CCN(CC)c1ccc(NS(=O)(=O)c2ccc(OC)cc2)cc1	i	-1.1	0.68	2.3	3.3	4.5%	2.3
COc1cccc2cc(C(=O)NC(C)c3ccccc3)c(=O)oc12 (centres undefined)	i	4.8	0.687	-1.8	1.3	-6.8%	4.0
CN(CCc1ccccc1)C1CCCN(C(=O)Cn2cccn2)C1 (centres undefined)	i	0.0	0.667	0.3	3.1	/	-3.5
Cc1ccc(Nc2nc(N)nc(CN3CCN(Cc4ccc5c(c4)OCO5)CC3)n2)c(C)c1	/	0.1	0.658	/	3.2	-1.8%	-1.9
COc1cccc(CNC(=O)CCCSc2ccccc2)c1	i	6.9	0.693	-2.3	1.5	/	-0.4
O=C(COC(=O)[C@H](Cc1ccccc1)NC(=O)c1ccco1)Nc1ccccc1OC(F)F	i	/	0.67	1.9	1.7	/	0.7
Cc1ccc(N2CCN(C(=O)c3ccccc3Br)CC2)c(C)c1	/	0.9	0.693	/	1.9	-0.6%	0.4
CSc1c(-c2ccccn2)c(N)nn1C(=O)C1CC1	i	0.8	0.639	-2.5	2.4	24.6%	-6.3
O=S1(=O)C[C@H](N2CCN(CCO)CC2)[C@@H](COCc2ccccc2)N1	i	/	/	1.0	/	/	6.4
CCOc1ccccc1NC(=O)Cn1c(=O)n(CCC(=O)NC2CCCC2)c(=O)c2ccccc21	/	27.6	0.784	/	2.0	?	-1.9
O=C(CCn1cnc2ncccc2c1=O)N1CCN(c2cccc(Cl)c2)CC1	i	6.1	0.666	-4.4	1.9	-0.5%	3.3

Reprinted at random: 4 entries already listed.
SMILES	FGF22 binding	RanGTP-Impb inh	E coli growth	AF4-AF9 inh	UCH37 inh	Vif TR-FRET	HNF4A DNA FP
CCOc1ccccc1NC(=O)Cn1c(=O)n(CCC(=O)NC2CCCC2)c(=O)c2ccccc21	/	27.6	0.784	/	2.0	?	-1.9
COc1ccc(N(C(=O)Cn2nnc3ccccc32)C(C(=O)NC(C)(C)C)c2ccc(OC)c(O)c2)cc1 (centres undefined)	i	1.6	0.704	1.7	0.8	14.1%	-1.8
CSc1c(-c2ccccn2)c(N)nn1C(=O)C1CC1	i	0.8	0.639	-2.5	2.4	24.6%	-6.3
Cc1sc2ncn(CC(=O)NCC3COc4ccccc4O3)c(=O)c2c1S(=O)(=O)N1CCOCC1 (centres undefined)	i	3.3	0.752	-1.4	3.1	-1.4%	-2.7

Next records
SMILES	FGF22 binding	RanGTP-Impb inh	E coli growth	AF4-AF9 inh	UCH37 inh	Vif TR-FRET	HNF4A DNA FP
CCN(CC(=O)Nc1ccc(NC(C)=O)cc1)C(=O)CSCC(=O)Nc1ccc(C)cc1	i	-0.6	0.677	-1.5	2.8	-1.2%	0.6
O=C(Nc1ccc(Oc2cccnc2)cc1)C1CCN(Cc2ccccc2)CC1	i	1.0	0.702	3.6	5.7	/	2.9
Nc1nc(NCc2ccccc2)n(-c2ccccc2)n1	i	-0.7	0.663	13.6	3.4	-5.7%	0.6
COc1ccc(CNCc2cn(-c3cccc(F)c3)nc2-c2ccc(C)o2)cc1	i	-2.5	0.641	10.1	-4.0	/	30.7
O=C(CN(c1cccc(C(F)(F)F)c1)S(=O)(=O)c1ccccc1)N1CCOCC1	/	-2.6	0.723	/	3.0	14.3%	-0.3
Cc1ccc(C2(C(F)(F)F)NC(=O)N3N=C4CCCCCN4C3=C2C#N)cc1 (centres undefined)	/	0.5	0.688	-1.8	0.5	-10.8%	-0.8
Cc1nc2c(sc3nc4c(cc32)COC(C)(C)C4)c(=O)n1CC(=O)NCc1ccco1	i	4.3	0.718	7.9	-6.2	13.6%	2.2
O=C(NCCc1ccccc1)C1CCCN(C(=O)Nc2ccc(F)cc2)C1 (centres undefined)	i	?	0.641	-2.4	-0.6	0.2%	-0.1
COC(=O)CNC(=O)COC(=O)c1ccc(Cl)nc1	i	4.5	0.696	-14.5	0.6	/	3.7
Cc1cc(Br)cn2c(CC(C)(C)C)c(C3CCCCC3)nc12	i	/	/	-7.1	/	/	-3.8
CC(=O)OCCN1C(=O)c2ccc(-c3nc4ccccc4c(=O)o3)cc2C1=O	i	-2.6	0.646	6.1	-12.5	/	-0.8
Cc1ccc(N(C)S(=O)(=O)c2c(C)noc2/C=C/N(C)C)cc1	i	0.8	0.718	0.7	15.4	/	-1.2
Cc1ccc(S(=O)(=O)NCC(=O)OCc2cc(=O)oc3cc(C)ccc23)cc1	i	/	0.712	-3.1	6.4	5.5%	1.5
O=C(NC(c1ccc(F)cc1)c1ccc2ccccc2n1)C1CCN(CCOc2ccc(Cl)cc2Cl)CC1 (centres undefined)	i	/	/	4.3	/	/	4.3
